HNF4A DNA FP = change in binding of human HNF4 alpha to DNA. activity change, % at 10 µM. HNF4a-FITC DNA binding, fluorescence polarization, 1 h. P41235. hit rate 0.3% among 360,000. AID 1224865; in the data active means activity change above about 30%, passing the limit was not always enough;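 further: controls were the assay level and a saturating level of protein; the project sought stronger binding though the title names inhibitors; some compounds called inactive have numbers as strong as hits; positive values seem to mean higher polarization but the record does not say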
Beta2AR agonist = activates human beta-2 adrenergic receptor causing internalization; P07550; Am2.2-beta2AR cells, FAP receptor internalization, flow cytometry; reference of the scale not given here; response, % (no concentration beside the values); hit rate 0.43% among 340,000; AID 504454;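 active means response above a set limit, near 3 SD of response in nonfluorescent compounds, cut at about 42% in these data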;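 further: stock transfer was 100 nL into about 11 µL; a reference agonist was the positive control; negative values mostly stem from fluorescent compounds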
Target sequence (P07550 whole entry, looked up): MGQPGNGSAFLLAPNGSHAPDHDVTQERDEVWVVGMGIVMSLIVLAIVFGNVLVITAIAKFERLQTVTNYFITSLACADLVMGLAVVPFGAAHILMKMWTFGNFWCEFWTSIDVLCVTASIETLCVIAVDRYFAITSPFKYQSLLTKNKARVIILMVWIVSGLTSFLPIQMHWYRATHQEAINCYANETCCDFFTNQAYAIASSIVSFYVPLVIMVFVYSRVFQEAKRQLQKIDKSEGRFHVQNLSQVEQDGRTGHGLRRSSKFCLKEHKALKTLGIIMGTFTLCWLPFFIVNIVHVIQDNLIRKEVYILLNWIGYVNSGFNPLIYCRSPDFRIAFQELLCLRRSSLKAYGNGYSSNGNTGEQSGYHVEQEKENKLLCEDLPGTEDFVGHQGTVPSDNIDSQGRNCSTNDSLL
FGF22 binding = shifts melting point of recombinant human FGF22; Q9HCT0; recombinant FGF22 thermal shift, SYPRO orange fluorescence; percent of sucrose octasulfate shift, DMSO zero; calls only at 9.99 µM; hit rate 1.5% among 340,000; AID 651658;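 active means melting point raised past a set limit in the mean and every replicate; inconclusive means no clear call; three in four hits are not shown here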
Target sequence (Q9HCT0 whole entry, looked up): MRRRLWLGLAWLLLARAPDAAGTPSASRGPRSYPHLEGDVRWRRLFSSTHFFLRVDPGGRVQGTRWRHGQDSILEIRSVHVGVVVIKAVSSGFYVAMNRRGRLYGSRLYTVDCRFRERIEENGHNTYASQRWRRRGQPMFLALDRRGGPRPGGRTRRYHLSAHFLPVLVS
ALR inh = human ALR oxidase inhibition via reduced H2O2; P55789; purified ALR, DTT oxidation, H2O2 HRP-luminol luminescence; hit rate 3.8% among 290,000; inhibition, % (no concentration beside the values);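 active means mean and each replicate at 75% or more; inconclusive means only one of the two met; inactive means neither met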;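 further: stock transfer was 7.5 nL into about 7.5 µL; 0% = neutral wells and 100% = wells with inactivated enzyme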
LANA-H2A inh = blocks KSHV LANA binding to histone H2A/H2B; cell-free LANA-H2A/H2B peptide, fluorescence polarization; inhibition, % (test concentration not listed); hit rate 0.6% among 320,000; in the data active means inhibition mostly above about 10%, no sharp cut-off; inactive means mostly below about 6.7%;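 further: stock transfer was 7.5 nL into about 10 µL; 0% = median of vehicle wells and 100% = median of positive control wells; one replicate is shown; the record names a cut of 25% in any replicate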
UCH37 DUB inh = blocks the human deubiquitinase UCH37 | inhibition, % (concentration not given with the values) | Q9Y5K5 | purified proteasome/UCH37, Ub-AMC cleavage fluorescence | hit rate 0.33% among 330,000;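 active means mean of two replicates above 20%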;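 further: 0% = compound-free wells with enzyme and 100% = wells lacking proteasome; stock transfer was 100 nL into about 20 µL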
Target sequence (Q9Y5K5 whole entry, looked up): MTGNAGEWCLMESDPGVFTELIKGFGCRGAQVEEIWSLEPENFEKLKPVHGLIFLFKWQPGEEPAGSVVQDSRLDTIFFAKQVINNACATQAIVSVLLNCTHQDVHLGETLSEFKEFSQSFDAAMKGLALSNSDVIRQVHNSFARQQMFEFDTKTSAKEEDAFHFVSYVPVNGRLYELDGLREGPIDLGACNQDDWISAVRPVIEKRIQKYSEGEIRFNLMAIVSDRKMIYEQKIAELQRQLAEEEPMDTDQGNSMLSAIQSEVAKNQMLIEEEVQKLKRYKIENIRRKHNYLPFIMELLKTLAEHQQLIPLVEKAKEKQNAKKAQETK
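Test system – human UCH37 enzyme supplied as purified proteasome complex · Incubation – 30 min preincubation with enzyme, 25 min cleavage at room temperature · Detection – AMC fluorescence from Ub-AMC cleavage, excitation 355 nm, emission 460 nm · Benchmarks – no-proteasome wells (full inhibition) and compound-free wells (no inhibition)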
E coli growth = blocks Escherichia coli growth; OD600, 23 h; stronger effect = lower value; OD600 absorbance (concentration not given with the values); hit rate 0.21% among 330,000;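 active means OD600 absorbance below the run mean of sample wells minus 3.6 SD, in any replicate, cut at about 0.56 in these data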;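 further: stock transfer was 300 nL into about 60 µL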
Numbers without * were called inactive; i = inactive; u = inconclusive; x = not tested or not shown; & = joins results of further samples. Some of the compounds tested; the hit share may differ from the screen's.

SMILES	HNF4A DNA FP	Beta2AR agonist	FGF22 binding	ALR inh	LANA-H2A inh	UCH37 DUB inh	E coli growth
CCn1cc(C(=O)NCc2ccco2)c(=O)c2cc(S(=O)(=O)N3CCc4ccccc4C3)ccc21	-3.7	7	x	4	1.9	2.6	0.67
c1ccc(SCCN2CCN(c3ccccc3)CC2)cc1	-1.4	0	i	98*	-0.3	4.3	0.61
CCCn1c(SCC(=O)NCC2CCCO2)nc2c1c(=O)n(C)c(=O)n2C (stereo unspecified)	-2.5	0	x	-2	1.4	-2.5	0.72
O=C(CN1CCN(c2ccccn2)CC1)Nc1nc2ccccc2s1	-2.1	-9	i	-7	3.5	4.1	0.67
CC(=O)Nc1ccc(S(=O)(=O)NCCc2ccccc2)cc1	1.3	-1	x	-4	0.2	2.2	0.67
Cc1[nH]n(-c2ccccc2)c(=S)c1C=NCCCN=Cc1c(C)[nH]n(-c2ccccc2)c1=S	0.3	18	i	5	1.6	5.4	0.71
COc1ccc(S(=O)(=O)Nc2ccccn2)cc1C	0.5	6	i	10	4.5	0.8	0.73
Cc1cccc(-n2c(=S)[nH]c3nc4c(cc3c2=O)COC(C)(C)C4)c1	3.2	4	i	x	3.4	3.8	0.74
Cc1[nH]c2ccc(C(=O)OC(C)C(=O)N(C)c3ccccc3)cc2c1C (stereo unspecified)	2.1	3	x	-1	-3.7	2.7	0.68
CCCCc1ccc(NC(=O)CSc2nnc(C)c(=O)n2N)cc1	-1.9	-7	i	u	-4.7	4.4	0.63
Cc1cc(C)c(C(=O)Nc2ccc(S(=O)(=O)Nc3onc(C)c3C)cc2)c(C)c1	0.8	-5	i	x	x	6.0	0.76
CN(Cc1ccccc1)S(=O)(=O)c1ccc2c(c1)OCCO2	-1.1	16	x	-5	1.4	6.8	0.7
COc1ccc(CNC(=O)NS(=O)(=O)c2ccc(C)cc2)cc1	0.9	-1	i	-8	4.5	3.2	0.7
Cc1ccc(C(=O)NC(=S)NCC2CCCO2)cc1Br (stereo unspecified)	-0.4	4	i	-1	0.1	2.6	0.63
COC(=O)CCN(C(=O)c1ccc(C)c([N+](=O)[O-])c1)c1ccccn1	-1.3	0	x	-1	4.8	0.5	0.73
CCS(=O)(=O)c1ccc2oc(SCC(=O)N3c4ccccc4CC3C)nc2c1 (stereo unspecified)	0.4	-11	x	-6	-0.9	3.0	0.66
COc1ccc(CCNC(=O)CNC(=O)c2ccc(Br)o2)cc1OC	1.7	3	i	19	-0.5	x	x
COCCN(Cc1cc2cc3c(cc2nc1Cl)OCO3)C(=O)c1cccc(C)c1	6.2	1	i	x	-1.6	0.7	0.7
S=c1[nH]nc(-c2ccc(Br)cc2)n1-c1ccc2c(c1)OCCO2	4.4	2	i	71	-4.2	0.1	0.65
CC(OC(=O)C1CC1)C(=O)Nc1cccc(S(=O)(=O)N2CCOCC2)c1 (stereo unspecified)	2.0	-5	i	2	1.1	2.1	0.68
COc1ccc(NC(=O)C2CCCN(S(=O)(=O)c3ccc(Cl)cc3)C2)cc1OC (stereo unspecified)	0.9	-4	i	-8	-2.9	4.0	0.68
C=C(C)CN1CCN(c2ccc(N3C(=O)CCCC3=O)cc2[N+](=O)[O-])CC1	5.0	-9	i	-5	-11	4.8	0.69
O=C(CCN1CCOCC1)NNC(=O)Nc1cccc(C(F)(F)F)c1	0.0	4	i	-4	-5.5	-1.7	0.71
O=C(Nc1ccc(N2CCOCC2)cc1)C1CC(=O)N(c2ccc(Cl)cc2)C1 (stereo unspecified)	1.1	-1	i	13	3.4	-0.9	0.7
CCOCCOc1nc2c(c(=O)n(C)c(=O)n2C)n1CCc1ccccc1	2.4	-8	x	-2	-1.9	5.4	0.67
COCCn1c(SCc2cc(C(C)=O)ccc2OC)nc2cc(Cl)ccc2c1=O	4.4	8	x	0	1.0	-0.9	0.69
COC(=O)c1c(C(=O)OC)c(-c2ccc(C)cc2)n2c1CS(=O)C2 (stereo unspecified)	-3.2	0	x	16	-1.5	-5.1	0.74
CC(C(=O)NCc1cccs1)N1CCN(S(=O)(=O)c2ccc3c(c2)OCCCO3)CC1 (stereo unspecified)	-1.8	-5	i	x	x	3.2	0.68
CCC(C)N(CC(=O)Nc1cccc(C)c1C)C(=O)CCl (stereo unspecified)	-2.8	19	x	6	2.3	1.3	0.66
C=CCNC(=O)c1ccc(-c2nc(-c3ccccc3)cs2)cc1	3.3	-1	x	24	-2.5	-10	0.73
O=C(NCc1ccc2c(c1)OCO2)C1CCC(=O)N1C1CCCC1 (stereo unspecified)	4.7	7	i	-5	7.4	-0.7	0.69
O=C(O)C1C2CCC(C2)C1C(=O)NCc1ccccn1 (stereo unspecified)	0.1	-2	x	-3	2.4	2.8	0.7
CN(CCO)CCC(=O)NC1(C)CS(=O)(=O)CC1S(=O)(=O)O (stereo unspecified)	-2.3	-1	i	-2	0.6	-1.2	0.68
COc1ccccc1CNC(=O)c1cccc(S(=O)(=O)N2CCN(c3ccc(F)cc3)CC2)c1	5.7	-5	i	6	-0.9	5.5	0.72
CC1CCCCN1S(=O)(=O)c1ccc(S(=O)(=O)N2CCN(C)CC2)cc1 (stereo unspecified)	-0.9	-5	i	3	-2.0	3.1	0.7
CC1(C)Nc2ccccc2C(=O)N1c1ccccc1	-5.2	0	i	-1	-3.4	i	0.7
COC(=O)c1cc(OC)c(OC)cc1NC(=S)N1CCCC1	-2.7	2	x	-32	1.8	x	x
COc1ccccc1NC(=O)CSc1nnc(COc2ccccc2OC)n1C	2.7	2	i	57	5.8	2.7	0.75
CC(C)CN1CCC(=O)N([C@H](COc2ccccc2)Cc2ccccc2)CC1	-4.3	13	i	-8	9.2	-1.7	x
COc1cc(/C=N/OCC(=O)Nc2cc(C)on2)ccc1OCc1ccccc1	3.8	-5	i	-14	3.0	x	x
NCCCNC(=O)c1ccc(/C=N/O)nc1	-3.3	-11	x	2	5.4	x	x
O=C(c1ccc(-c2ccc(Cl)cc2)o1)N1CCN(S(=O)(=O)c2cccs2)CC1	-2.4	15	i	x	0.1	-0.5	0.69
CCC(Sc1nc(C)cc(=O)[nH]1)C(=O)Nc1nc2c(s1)CCCC2 (stereo unspecified)	-0.2	-1	x	24	-5.2	4.2	0.68
CCOC(=O)NC(NCc1ccccc1Cl)(C(F)(F)F)C(F)(F)F	-0.1	4	x	1	-2.8	3.8	0.69
CC/S(C)=N/S(=O)(=O)c1ccc(C)cc1 (stereo unspecified)	3.0	-5	i	-3	1.8	1.5	0.69
Cc1ccc2c(c1)C=CC(C)(C)S2=O (stereo unspecified)	-1.4	3	i	x	2.2	2.5	0.68
CCCCN1CC(O)=C(c2nc(-c3ccc(Cl)cc3)cs2)C1=N	-5.4	2	x	-7	7.3	2.4	0.75
Cc1cccc(/C=N/n2c(C)nnc2C)c1	-1.1	-9	x	-7	-0.5	x	x
COc1ccc(CS(=O)(=O)c2ncn[nH]2)cc1	0.7	-11	i	-18	-1.6	0.5	0.65
Cn1c(CN2CCCC2)nc2cc(NC(=O)C3CCCCC3)ccc21	1.5	-3	x	-1	-3.4	0.1	0.67

Some values from the list:
Reading for NCCCNC(=O)c1ccc(/C=N/O)nc1 under LANA-H2A inh: 5.4
Reading for COc1ccc(CS(=O)(=O)c2ncn[nH]2)cc1 under E coli growth: 0.65
Reading for Cc1ccc2c(c1)C=CC(C)(C)S2=O (stereo unspecified) under HNF4A DNA FP: -1.4

More compounds
SMILES	HNF4A DNA FP	Beta2AR agonist	FGF22 binding	ALR inh	LANA-H2A inh	UCH37 DUB inh	E coli growth
Cc1ccccc1-n1ncc2c1CC(C)(C)CC2NC(=O)C1=CC(=O)CC(C)(C)O1 (stereo unspecified)	-3.4	-1	i	-1	-5.5	-1.6	0.67
CCOC(=O)C1CCCN(Cc2nc(C3CC3)no2)C1 (stereo unspecified)	-5.7	1	i	x	-2.4	0.5	0.66
NCCCC[C@H]1CNC(=O)C(=O)N1CCc1cc(C(F)(F)F)cc(C(F)(F)F)c1	0.8	1	i	-6	-2.3	0.6	x
Cc1ccc(CN(CC(O)COc2cccc3[nH]cc(C)c23)C(C)(C)C)cc1 (stereo unspecified)	0.1	0	i	-65	3.3	1.7	0.63
O=C(CSc1cccc[n+]1[O-])Nc1ccc2c(c1)OCCO2	-1.4	3	i	87*	0.2	6.5	0.66
COc1ccccc1N1CCN(C(=S)Nc2ccccc2)CC1	2.5&0.5	2	i	57	2.1	3.6	0.65
Cc1cccc(NC(=O)c2cc3ccccc3oc2=O)c1	0.4	-8	i	-14	-2.3	3.2	0.68
Cc1cccc(Oc2ncnc(N)c2[N+](=O)[O-])c1C	-3.7	-2	i	-3	-2.1	3.8	0.69
CCOC(=O)C1CCCN(C(=O)c2cc(-c3ccc(F)cc3)nc3ccccc23)C1 (stereo unspecified)	-3.4	-8	x	-10	-0.7	-1.3	0.67
CC(=O)c1cccc(OCC(O)CNCCOc2ccc(C)cc2)c1 (stereo unspecified)	-1.3	0	i	-5	-5.3	1.9	0.63
COc1ccc(NC(=O)CCS(=O)(=O)c2ccc3c(c2)NC(=O)C(C)S3)cc1OC (stereo unspecified)	-1.2	-1	i	-6	-1.0	1.9	0.71
CCc1ccc(C(=O)CSc2ncn[nH]2)cc1	6.0	12	x	54	-2.3	2.7	0.68
CC(=O)c1c(C)[nH]c(C(=O)N2c3ccccc3CC2C)c1C (stereo unspecified)	-0.8	-11	i	2	-0.1	2.0	0.7
N#C[C@H]1C2OC2c2ccccc2N1C(=O)c1ccccc1 (stereo partly specified)	-1.2	2	i	-2	8.0	4.5	0.76
Cc1ccc2c(c1)C(=C(C#N)C#N)CCN2	33	9	i	x	x	x	x
COC(=O)C1=C(C)N(Cc2ccccc2)C(=NCC2CC2)N[C@H]1c1ccccc1	8.8	-20	i	-6	0.8	1.9	x
Cc1cc(C(=O)COC(=O)c2ccc3c(c2)OCO3)c(C)n1CC1CCCO1 (stereo unspecified)	2.6	-5	i	10	-4.0	0.3	0.73
Cc1ccccc1OCC(=O)Nc1nnc(C2CC2)s1	-2.8	1	i	1	1.9	-1.9	0.72
COc1ccc(CNC(=O)CCc2nnc3ccc(N4CCC5(CC4)OCCO5)nn23)cc1	-0.3	1	i	-24	3.8	-1.1	0.66
COc1ccc(C(=O)Nc2ccccc2C(N)=O)cc1	4.4	-2	x	-5	1.3	1.4	0.66
c1ccc(Cn2nnnc2CN2CCN(c3ncccn3)CC2)cc1	6.4	-3	x	-1	0.3	0.9	0.68
O=C(COc1ccc(Br)cc1)Nc1ccc(C(=O)Nc2ccccc2C(=O)O)cc1	1.9	8	i	-10	-1.9	x	x
C=CCN1C(=O)c2ccc(C(=O)OCC(=O)N(CC)C3CCS(=O)(=O)C3)cc2C1=O (stereo unspecified)	-3.7	15	i	x	2.3	5.0	0.63
Cc1ccc(NC(=O)c2cc(-c3cccs3)on2)cc1C	-0.4	-15	i	-4	0.7	-1.3	0.7
O=c1[nH]nc(SCc2ccccc2Cl)n1-c1ccc2c(c1)OCCO2	0.4	3	i	-1	1.1	0.6	0.7
O=C(NCc1ccc2c(c1)OCO2)c1cccnc1Cl	3.4	-1	x	-4	-6.1	-0.2	0.69
COc1ccc(NC(=O)CN(C)C(=O)c2ccc(NS(=O)(=O)c3ccc4[nH]c(=O)[nH]c4c3)cc2)cc1	-1.6	0	x	-6	3.9	x	x
O=C(Nc1ccccc1)c1n[nH]c(Cn2cncn2)n1	-1.5	-3	x	-10	1.8	0.7	0.67

Screening data deposited in PubChem BioAssay by several laboratories.
